# GLA inh pH 4.5 = blocks human alpha-galactosidase A at pH 4.5; P06280; purified enzyme, 4-MU-alpha-Gal fluorescence, pH 4.5; activity change, negative = inhibition, % at 105 µM; 230,000 tested, under 10 active; AID 1467; inconclusive = small, poorly fitted or top-dose-only inhibition, or a rising curve; inactive = flat fitted curve, though single readings scatter; no compound was filed as active;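 note: 0% = full activity with enzyme and -100% = basal without enzyme; dose as in the result columns while the protocol names 77 µM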
# Target sequence (P06280 whole entry, looked up): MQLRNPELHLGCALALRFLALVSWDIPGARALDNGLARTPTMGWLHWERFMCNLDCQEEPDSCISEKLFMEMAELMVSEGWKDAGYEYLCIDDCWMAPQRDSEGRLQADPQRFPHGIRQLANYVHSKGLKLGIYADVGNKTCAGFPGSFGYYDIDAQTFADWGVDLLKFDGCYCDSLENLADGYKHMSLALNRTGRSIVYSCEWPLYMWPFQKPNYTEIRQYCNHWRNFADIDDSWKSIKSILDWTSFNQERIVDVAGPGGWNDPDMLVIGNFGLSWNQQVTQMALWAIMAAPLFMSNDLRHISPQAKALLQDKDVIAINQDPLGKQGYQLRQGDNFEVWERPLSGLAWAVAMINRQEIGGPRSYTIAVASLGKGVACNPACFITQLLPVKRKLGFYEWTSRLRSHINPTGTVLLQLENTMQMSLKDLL
# * = called active by the depositor; & = joins results of further samples.
# The opening twelve entries as a preview:
GLA inh pH 4.5 | Structure
-4.2 | O=C(Oc1cc(OC(=O)c2ccccc2)c2c(c1)OC(c1ccc(OC(=O)c3ccccc3)c(OC(=O)c3ccccc3)c1)[C@@H](OC(=O)c1ccccc1)C2)c1ccccc1 (stereo partly specified)
-8.2 | CCC1=C2CC[C@H]3C(=O)N(c4ccccc4)C(=O)[C@H]3[C@H]2[C@@]2(Cc3ccccc3)C(=O)N(CC(=O)OC)C(=O)N2C1=O
-1.2 | COCCNc1cc(-c2ccccc2CN(C)C)ncn1
-4.9 | NCCC[C@@H](CC(=O)N[C@@H]1CCNC[C@H]1C(=O)N[C@H](CC(=O)N[C@@H](CCC(=O)O)CC(=O)O)Cc1c[nH]c2ccccc12)NC(=O)C[C@H](Cc1ccccc1)NC(=O)[C@@H]1CCCC[C@H]1N
-5.0 | C=CCC(C)(O)c1cccc(Br)c1 (stereo unspecified)
-6.4 | C[C@H](O)Cn1cnc2c1c(=O)n(C)c(=O)n2C
-13.0 | CC(C)Oc1cccc(-n2c(CCc3c[nH]c4ccc(Br)cc34)nc3ccccc3c2=O)c1
-12.2 | COc1ccccc1CNc1ncnc2ccc(-c3ccc(N(C)C)cc3)cc12
1.8 | CC1(C)SC2C(NC(=O)C(C(=O)O)c3ccccc3)C(=O)N2C1C(=O)O (stereo unspecified)
-12.9 | CC(=O)[C@H]1[C@H](C#N)CC2C3CC=C4C[C@@H](O)CCC4(C)C3CCC21C (stereo partly specified)
-5.6 | CC[N+](C)(CC)CC(=O)Nc1c(C)cccc1C
-15.8 | COc1ccc(Cl)cc1-c1ccc(C(=O)O)s1

# Results (from the top)
GLA inh pH 4.5 | Structure
-4.2 | O=C(Oc1cc(OC(=O)c2ccccc2)c2c(c1)OC(c1ccc(OC(=O)c3ccccc3)c(OC(=O)c3ccccc3)c1)[C@@H](OC(=O)c1ccccc1)C2)c1ccccc1 (stereo partly specified)
-8.2 | CCC1=C2CC[C@H]3C(=O)N(c4ccccc4)C(=O)[C@H]3[C@H]2[C@@]2(Cc3ccccc3)C(=O)N(CC(=O)OC)C(=O)N2C1=O
-1.2 | COCCNc1cc(-c2ccccc2CN(C)C)ncn1
-4.9 | NCCC[C@@H](CC(=O)N[C@@H]1CCNC[C@H]1C(=O)N[C@H](CC(=O)N[C@@H](CCC(=O)O)CC(=O)O)Cc1c[nH]c2ccccc12)NC(=O)C[C@H](Cc1ccccc1)NC(=O)[C@@H]1CCCC[C@H]1N
-5.0 | C=CCC(C)(O)c1cccc(Br)c1 (stereo unspecified)
-6.4 | C[C@H](O)Cn1cnc2c1c(=O)n(C)c(=O)n2C
-13.0 | CC(C)Oc1cccc(-n2c(CCc3c[nH]c4ccc(Br)cc34)nc3ccccc3c2=O)c1
-12.2 | COc1ccccc1CNc1ncnc2ccc(-c3ccc(N(C)C)cc3)cc12
1.8 | CC1(C)SC2C(NC(=O)C(C(=O)O)c3ccccc3)C(=O)N2C1C(=O)O (stereo unspecified)
-12.9 | CC(=O)[C@H]1[C@H](C#N)CC2C3CC=C4C[C@@H](O)CCC4(C)C3CCC21C (stereo partly specified)
-5.6 | CC[N+](C)(CC)CC(=O)Nc1c(C)cccc1C
-15.8 | COc1ccc(Cl)cc1-c1ccc(C(=O)O)s1
-6.4 | CCCCC/C=C\C[C@@H](O)/C=C/C=C/C=C/[C@@H](O)CCCC(=O)O
7.7 | CCCCc1cc2c(cn1)=C(OC(=O)c1ccco1)C(C)(OC(=O)CC)C(=O)C=2 (stereo unspecified)
-2.3 | Cc1nnc(SCC2=C(C(=O)O)N3C(=O)[C@@H](NC(=O)Cn4cnnn4)[C@@H]3SC2)s1
3.5 | NCC1O[C@@H](O[C@@H]2C(O)[C@H](O[C@H]3OC(CO)C(O)C(N)C3O)[C@@H](N)C[C@H]2N)C(N)C(O)C1O (stereo partly specified)
0.9 | N[C@@H](C(=O)O)c1ccc(O)c(C(=O)O)c1
-4.4 | CN(C)[C@@H]1C(=O)C(C(N)=O)=C(O)[C@]2(O)C(=O)C3=C(O)c4c(O)ccc(Cl)c4[C@H](O)[C@H]3C[C@@H]12
1.5 | CC(=O)OC1CC(OC(C)=O)[C@]2(C)C(CC(=O)[C@]3(C)C2CC[C@@]2(C)C(c4ccoc4)OC(=O)C4O[C@@]423)C1(C)C (stereo partly specified)
-5.3 | COc1ccc(CNc2nc(-c3ccccc3CN(C)C)nc3ccccc23)c(OC)c1
-2.9 | COc1cccc(CS(=O)(=O)c2ccccc2)c1
-11.5 | C=C1c2cccc(OC)c2O[C@H](C(=O)OCC)[C@@H]1CCC(C)C
1.8 | CC[C@H](c1ccc(O)cc1)[C@@H](CC)c1ccc(O)cc1
1.1 | COC(=O)N[C@@H](c1ccc(Br)cc1)C(C(=O)OC)C(=O)OC
0.9 | OCC1O[C@H](OC2C(CO)O[C@@](O)(CO)C2O)C(O)C(O)C1O (stereo partly specified)
-1.8 | COc1ccc(-c2nc3c(c4c2C[C@H](c2ccccc2)OC4)CN(C(=O)N[C@@H](C)c2ccccc2)CC3)c(C)c1
2.3 | CC(=O)OC1CCC2(C)C(CCC3(C)C2C(=O)C=C2C4CC(C)(C(=O)OCCN5CCCCC5)CCC4(C)CCC23C)C1(C)C (stereo unspecified)
3.0 | C=C(CO)C1Cc2c(ccc3c2OC2COc4cc(OC)c(OC)cc4C2C3=O)O1 (stereo unspecified)
-3.3 | C#CC(N)CCC(=O)O (stereo unspecified)
-6.0 | Cc1noc(C)c1-c1nc(NCc2cccnc2)c2ccccc2n1
-8.2 | CN(C)C1C(=O)C(C(N)=O)=C(O)[C@@]2(O)C(=O)C3=C(O)c4c(O)ccc(Cl)c4[C@@H](O)C3C[C@@H]12 (stereo partly specified)
3.0 | CC(C)NC[C@@H](O)COc1ccccc1-n1cccc1
0.5 | Nc1nc2c(nc(Cl)n2C2OC(CO)C(O)C2O)c(=O)[nH]1 (stereo unspecified)
0.8 | CN(Cc1ccco1)c1nc(-c2ccccc2Cl)nc2ccccc12
5.7 | Nc1nc(O)c2ncn([C@H]3CC[C@@H](CO)O3)c2n1
2.6 | CC(=O)O[C@@H](C)C#C[Si](C)(C)c1ccccc1
1.3 | CSCCC(N)C(=O)O (stereo unspecified)
5.8 | CCCN=C(N)NCCC[C@H](N)C(=O)O
-6.3 | COC(=O)CCC(=O)OC1(C)C(=O)C=C2C=C(C3CC3)OC=C2C1=O (stereo unspecified)
-1.2 | COC(=O)C1=C(C(=O)OC)[C@@H]2Nc3ccccc3[C@@]23C[C@@H](C(=O)OC)N(S(=O)(=O)c2ccc([N+](=O)[O-])cc2)C3=N1
-11.0 | CCCCc1nc2ccn(CC(=O)N(C)C)c(=O)c2n1Cc1ccc(-c2ccccc2-c2nn[nH]n2)cc1
-4.2 | C#C[C@]1(OC(C)=O)CC[C@H]2[C@@H]3CCC4=CC(=O)CC[C@@H]4[C@H]3CC[C@@]21C
-5.5 | COc1ccc(NS(=O)(=O)c2ccc(I)cc2)cc1N1CCN(C)CC1
-4.5 | NC1(C(=O)O)CCc2cc(C(=O)O)ccc21 (stereo unspecified)
3.1 | COC(=O)[C@@]1(C)C[C@@H]1[C@@H](NC(=O)[C@@]1(C)C[C@@H]1[C@@H](NC(=O)[C@@]1(C)C[C@@H]1[C@@H](NC(=O)[C@@]1(C)C[C@@H]1[C@@H](NC(=O)OCc1ccccc1)c1ccccc1)c1ccccc1)c1ccccc1)c1ccccc1
-3.4 | COC(=O)[C@@]1(Cc2ccc(OC)cc2)[C@H]2c3cc(C(=O)N4CCCC4)n(CCCNc4ncc(C(F)(F)F)cc4Cl)c3C[C@H]2CN1C(=O)c1ccccc1
-2.8 | CCc1c2c(nc3ccc(OC)cc13)OC(CC)C2 (stereo unspecified)
-4.8 | CCCCNC(=O)NS(=O)(=O)c1ccc(N)cc1
-2.8 | COc1c(-c2coc3cc4c(cc3c2=O)CC(OC(C)=O)C(C)(C)O4)ccc2c1C=CC(C)(C)O2 (stereo unspecified)
-5.3 | CC(=O)OC1CC(O)C(C)(C)C2CC(OC(C)=O)[C@]3(C)C(CC[C@@]4(C)C(c5ccoc5)OC(=O)C5OC534)[C@]12C (stereo partly specified)
7.9 | CCN[C@@H]1C[C@H](N)[C@H](O[C@H]2OC(CN)=CC[C@H]2N)[C@@H](O)[C@H]1O[C@H]1OC[C@@](C)(O)[C@@H](NC)[C@@H]1O
-17.6&-1.4 | O=c1cc(N2CCOCC2)oc2c(-c3ccccc3)cccc12
-20.7 | COC(=O)c1ccc(C(NC(=O)OCc2ccccc2)/C(=C/[C@@H](C)C(=O)NCc2ccc(-c3ccccc3)cc2)c2cccnc2)cc1 (stereo partly specified)
2.8 | CC1(C)O[C@@H]2[C@@H](O1)C(c1ccccc1)(c1ccccc1)OP(=O)(O)OC2(c1ccccc1)c1ccccc1
-5.5 | N[C@H]1CCN(O)C1=O
-5.4 | CC(C)c1ccc2c(c1)CCC1C(C)(C(N)=O)CCCC21C (stereo unspecified)

# Later entries.
GLA inh pH 4.5 | Structure
-0.3 | CCCCc1nc2c(c3c1C[C@H](C)OC3)CN(C(=O)COC)CC2
-4.5 | CCCCC/C=C\C/C=C\CCCCCCCC(=O)NCC(=O)O
-5.0 | CC(=O)O[C@H]1CC2(C)[C@@H](C[C@@H](O)[C@H]3[C@@]4(C)CC[C@@H](O)[C@@H](C)[C@@H]4CC[C@@]32C)C1=C(CCC=C(C)C)C(=O)O (stereo partly specified)
-12.7 | NC(N)=NCCC[C@H](NC(=O)CC1(CC(=O)N2CCN(C3c4ccccc4NC(=O)c4ccccc43)CC2)CCCC1)C(=O)NCCn1c(=O)n(-c2ccccc2)n(-c2ccccc2)c1=O (stereo partly specified)
-8.1 | CCC/C=C(\CCC)C(NS(=O)(=O)c1ccc(Cl)cc1)c1ccc(C(=O)OC)cc1 (stereo unspecified)
24.2 | CC(C)c1cccc2c([Si](C)(C)C)c3c(nc12)-c1cccc(=O)n1C3
-2.6 | C=CC(C1=CC(=O)C(OC)=CC1=O)c1ccc(OC)cc1 (stereo unspecified)
-7.7 | C=C(C(C)=O)C(O)c1ccc(Cl)cc1 (stereo unspecified)
4.3 | Cc1ccc(S(=O)(=O)N2CCc3nc(-c4ccccc4)c4c(c3C2)CO[C@@H](C)C4)cc1
5.9 | COc1ccc(-c2nc3c(c4c2C[C@H](c2ccccc2)OC4)CN(C(=O)NCc2ccco2)CC3)c(C)c1
-7.5 | CCCCC/C=C\C/C=C\C/C=C\C/C=C\CCCCCC(N)=O
-8.2 | N#Cc1cccc(CS(=O)(=O)c2nnnn2-c2cc(C(F)(F)F)cc(C(F)(F)F)c2)c1
-17.2 | CCC(C(=O)O)C1CCC(C)C(C(C)C(O)C(C)C(=O)C(CC)C2OC3(C=CC(O)[C@@]4(CC[C@](C)(C5CC[C@@](O)(CC)C(C)O5)O4)O3)C(C)CC2C)O1 (stereo partly specified)
-9.2 | CN1CC[C@@]23c4ccccc4N[C@H]1[C@]21CCN(C)[C@@H]3Nc2ccccc21
-8.7 | CCCn1c(C)nc2c(N(C)CCN(C)C)nc(C)nc21
-4.5 | N#Cc1ccc2c(c1)N(CCCN1CCC(O)CC1)c1ccccc1S2
6.1 | COc1ccccc1CNc1ncncc1-c1cccc(C#N)c1
-13.9 | CC(=O)C(C)=O
-17.6 | Cc1cccc(CNc2ncncc2-c2ccc3c(c2)OCO3)c1
-9.6 | Fc1ccc(Nc2nc(-c3cccnc3)nc3ccccc23)cc1
-3.7 | Cc1cccc(CNc2ncnc3ccc(-c4cccc(NS(C)(=O)=O)c4)cc23)c1
9.6 | CC[C@H]1C(c2ccccc2)=NN(c2ccccc2)[C@@H]1CO
1.4 | CS/C(N)=C(C#N)/C(C#N)=C(\N)SC
3.5 | CCCC1(C(=O)OC)C=C2C(=C(C(C)C)C(=O)C2C)CN1 (stereo unspecified)
-1.7 | COc1ccc2c(c1)c(CC(=O)O)c(C)n2C(=O)c1ccccc1
8.0 | COC(=O)CCC(=O)OC1(C)C(=O)C=C2C=C(C3CC3)N(c3ccc(CO)cc3)C=C2C1=O (stereo unspecified)
-1.3 | CC(=O)CC(c1ccccc1)C1C(=O)Oc2ccccc2C1=O (stereo unspecified)
-20.5 | CNC1CCC(c2ccc(Cl)c(Cl)c2)c2ccccc21 (stereo unspecified)
-2.9 | COc1ccc2c(c1)O[C@@H](c1cccc(C(F)(F)F)c1)[C@H](OC(=O)Nc1cc(OC)c(OC)c(OC)c1)C2=O
-1.4 | O=C(O)CCC/C=C\C[C@@H]1CO[C@H](C(F)(F)F)O[C@@H]1c1ccccc1O
0.4 | CC(CCC#N)[N+](=O)[O-] (stereo unspecified)
7.9 | COC(=O)CNC(=O)C1(C)C=CC2(CCCCC2)N1C(C)=O (stereo unspecified)
1.9 | CO[C@H]1C[C@@H](O[C@@H]2[C@H](C)[C@H](O[C@@H]3O[C@@H](C)C[C@@H](N(C)C)[C@@H]3O)[C@H](C)C[C@]3(CO3)C(=O)[C@H](C)[C@H](O)[C@H](C)[C@H](C)OC(=O)[C@@H]2C)O[C@@H](C)[C@H]1O
-3.1 | CC12CCC3c4ccc(OCc5ccccc5)cc4CCC3C1CC(O)C2O (stereo unspecified)
-9.2 | COC(=O)[C@@]1(Cc2ccccc2)[C@H]2c3cc(C(=O)N4CCCC4)n(CC4CC4)c3C[C@H]2CN1C(=O)c1ccccc1
3.2 | C/C=C(/C)C(=O)OC1C(OC(C)=O)[C@@]2(CO)C(O)C[C@@]3(C)C(=CCC4[C@@]5(C)CCC(OC6OC(C(=O)O)[C@@H](O[C@@H]7OC(CO)C(O)C(O)C7O)C(O)[C@H]6O[C@@H]6OC(CO)C(O)C(O)C6O)[C@](C)(CO)C5CC[C@@]43C)C2CC1(C)C (stereo partly specified)
8.9 | CC1CC2C3CCC4=CC(=O)C=C[C@@]4(C)[C@]3(F)C(O)C[C@]2(C)[C@]1(O)C(=O)COP(=O)(O)O (stereo partly specified)
-3.7 | CC(C)(C)Nc1oc(-c2ccccc2)nc1-c1ccc(C(F)(F)F)cc1
-8.8 | O=C1c2ccccc2C(Cc2ccnc(F)c2)(Cc2ccnc(F)c2)c2ccccc21
-16.4 | COC(=O)c1ccc(C(NC(=O)OCc2ccccc2)/C(=C/[C@@H](C)C(=O)NCC2CC2)c2cccnc2)cc1 (stereo partly specified)
-13.7 | CCOC(=O)C1(C(C)C)Oc2ccccc2C(c2ccc(OC)cc2)=C1C(=O)OC (stereo unspecified)

# The list is partial, so the mix of outcomes need not match the whole.
